# Screens from PubChem BioAssay.
# NPYLR7 ag: agonists of mosquito NPYLR7 receptor, primary screen, cell-based, Aedes aegypti, calcium fluorescence, mosquito biting behavior | hit rate 0.15% among 270,000 | AID 1259423, 2018 | Aedes aegypti neuropeptide Y-like receptor 7 (NPYLR7) | activation, % at 10 µM | HEK293T NPYLR7/Galpha15, GCaMP6s calcium fluorescence; in the data active = activation above about 40%;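 also: 0% = vehicle and 100% = reference agonist at the receptor; some compounds past the cut are filed as inactive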
# NPYLR7 ag max-min: also measured in NPYLR7 ag; calls as there; activation, %; measured here: Max-Min RFU normalised activation; some inactives read as strong as hits;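 span of the calcium signal over five minutes; 0% = vehicle and 100% = native peptide agonist; compound fluorescence can raise it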
# * hit, by the source's call; & = joins results of further samples. Some of the compounds tested; rates above refer to the full screens.
SMILES,NPYLR7 ag,NPYLR7 ag max-min
CN(C)S(=O)(=O)c1ccc(C(=O)Nc2c3c(nn2CC(=O)NCc2ccccc2)CSC3)cc1,-6,1
CC(=O)C1=NN(c2ccccc2)C2(S1)SC(C(C)=O)=C(C)N2C (stereo not given),2,1
Cc1ccccc1C(=O)Nc1ccc(-n2nc(OCC(C)C)nc2-c2ccccc2F)cc1,15,10
Cn1cccc1C(CNC(=O)C(C)(C)C)N1CCc2ccccc2C1 (stereo not given),0,1
COCCNC(=O)[C@H]1C[C@@H](O)[C@H](O)[C@@H]2N=C(Nc3cc(OC)cc(OC)c3)S[C@@H]21,-7,-14
CC1=C(Cc2cn(Cc3csc(N)n3)nn2)C(C)(C)CCC1,8,5
CCCCCNc1ccc(S(=O)(=O)Cc2ccc(Cl)cc2)nn1,-3,-8
Cc1ccc(-n2nnc(C(=O)N(C)C3CCS(=O)(=O)C3)c2C)cc1Cl (stereo not given),7,4
Cc1cc2ccccc2n1CCNC(=O)C1CCCC1,-1,-3
COC(=O)c1cc(OCC2CCC2)cc(C(=O)N2CC(c3cccnc3)C2)c1,-3,11
COCCCN(CC(=O)N1CCc2sccc2C1COc1ccc(F)cc1)C(=O)C1CCCC1 (stereo not given),-3,1
COc1ccc(-c2cc(C(=O)N(CCN(C)C)Cc3ccccc3)nc3c(-c4ccccc4)c(C)nn23)cc1,-7&0,3&11
O=C1C[C@H]2CC[C@@H](CN1)N2c1ccc(C(F)(F)F)cn1,8,-4
CCOC(=O)N1CCC(n2ccnc2-c2c(F)cc(OC)cc2F)CC1,16,14
Cc1sc(C(=O)O)cc1CS(C)(=O)=O,0,1
Cn1c2c(c3cc(-c4cccc5c4CCNC5)ccc31)CCCC2=O,2,0
Cc1oc(-c2ccc(C(F)(F)F)cc2)nc1CN1CCCCC1c1cccnc1 (stereo not given),-9,-16
CCCc1[nH]n(-c2ccc(Cl)cc2)c(=O)c1C1=C([n+]2ccc(C)cc2)C(=O)N(CCC)C1=O,-4,1
Cc1ccc(-n2nnc(C(=O)Nc3nccs3)c2C)cc1,5,-4
COc1ccc(CCOC(=O)C2CCCCN2C(=O)CCCCC2CCSS2)cc1OC (stereo not given),-9,-15
O=[N+]([O-])c1cc2c(cc1/C=N\Nc1nc(Nc3ccccc3)nc(N3CCCCC3)n1)OCO2,-2,-6
COc1ccc2c(c1)CC(CNC(=O)c1ccccc1F)O2 (stereo not given),3,2
Cc1cc2cc(CNC(=O)Nc3ccccc3)ccc2[nH]1,10,14
Cc1[nH]c2c(C)ccc(C)c2c1CC(=O)NCc1cccnc1-n1ccnc1,3,-3
COc1ccc(C2=N/C(=C\C=C\c3ccccc3)C(=O)O2)cc1OC,3,0
SMILES,NPYLR7 ag,NPYLR7 ag max-min
c1ccc(-c2ccnc3nc4ccccc4n23)cc1,-16,-20
COc1ccc(CCN(Cc2cccs2)C(=O)CN(CC2CCCO2)C(=O)Nc2ccc(Cl)cc2Cl)cc1OC (stereo not given),-3,3
Cc1cc(=O)[nH]c(-n2nc(C)cc2NC(=O)c2ccccc2)n1,-7,-5
Cc1cccc(-n2c(-c3ccc(Cl)cc3)cc(C(=O)NCc3ccccc3)c2C)c1,0,7
CC(Oc1ccccc1)C(=O)N1CCC(n2cnc3ccccc32)CC1 (stereo not given),-8,-12
Cc1ccc2oc(-c3ccc(C)c(NC(=O)c4ccc(Cl)cc4)c3)nc2c1,-9,-13
S=c1[nH]nc(-c2nccc3ccccc23)n1Cc1ccc(Cl)cc1,7,0
O=C(Nc1ccc(F)cc1NC(=O)C1CCCO1)c1ccccn1 (stereo not given),1,0
CC(=O)c1cccc(-c2cnc3c(NC=O)cc(-c4ccccc4F)cn23)c1,-6,-9
CCOC(=O)CN1Cc2cc(OC)ccc2N(CC(C)O)CCC1=O (stereo not given),5,9
CC(C)c1ccc(C2SCC(=O)N2c2ccccc2)cc1 (stereo not given),-13,-19
CN(CC1COc2ccccc2O1)C(=O)c1ccc(N2CCC(O)CC2)nc1 (stereo not given),5,2
COc1ccc(N2C(=O)c3ccccc3NC2c2c(C)nn(C)c2Cl)c(OC)c1 (stereo not given),17,11
Cn1ncc2c1ncn1c(-c3ccc(Cl)cc3Cl)nnc21,-4,-5
COC(=O)/C(=C/c1ccc(Cl)cc1Cl)NC(=O)c1ccc(OC)c([N+](=O)[O-])c1,-2,-4
Cn1ccnc1-c1ccc(NCCc2c[nH]c3ccccc23)nn1,4,-9
O=C(Cc1cccc2ccccc12)NCC(c1ccsc1)N1CCOCC1 (stereo not given),11,1
Cc1c(C)n2c3c(=O)n(Cc4cccc(Cl)c4)c(=O)n(C)c3nc2n1CCOCCO,1,8
C=CCCC(O)CN(Cc1c(C)nn(-c2ccccc2)c1Oc1cccc(F)c1)CC1CCCO1 (stereo not given),-5,-7
Cc1ccoc1C(=O)N(C)Cc1ccc(-n2cccn2)cc1,-6,-6
Cc1ccc(C2(O)CCN(C(=O)c3ccc(=O)[nH]n3)CC2)nc1,6,7
CCc1nc2c(OCc3ccc(C#N)cc3)cccn2c1N(C)C(=O)c1cccs1,8,-1
COc1ccc(CCNC(=O)c2cc(-c3ccc(C)o3)nn2-c2cccc(Cl)c2)cc1OC,15,16
Cc1cc(C)[n+](C23CC4CC(CC(C4)C2)C3)o1,-4,15
Cc1ccc(Nc2nc(N)c([N+](=O)[O-])c(N3CCCC3)n2)cc1,9,18
SMILES,NPYLR7 ag,NPYLR7 ag max-min
CNC(=O)[C@@H]1CN2CCN(C(=O)c3c(C)noc3C)C[C@@H]2[C@H]1c1ccccc1,1,-2
CN1C(=O)C2(CCCN(C(=O)c3cc4sccc4[nH]3)C2)c2ccccc21 (stereo not given),-1,8
O=C1CCC2(C(=O)NC3CCCc4ccccc43)SCCN12 (stereo not given),-3,-1
O=C(c1cccc(Br)c1)N1CCCC(OCc2cccc(OC(F)(F)F)c2)C1 (stereo not given),-3,0
Fc1ccccc1Nc1nc(Cc2ccccc2)nc2cc(Cl)ccc12,16,24
COc1ccc(C)cc1CC(=O)Nc1ccncc1,-1,-2
Clc1nc2ccccc2n2ccnc12,-3,3
COCCn1c(C)cn2c3c(=O)n(Cc4ccc(Cl)cc4)c(=O)n(C)c3nc12,52*,50*
COc1cc(NC(=O)Nc2c(C)nc3sccn3c2=O)cc(OC)c1OC,7,5
O=C(Cn1nc2c(c1NC(=O)COc1ccccc1F)CSC2)NCc1ccco1,-7,1
CC1c2cccn2CCN1CC(=O)Nc1sc2c(c1C#N)CCC2 (stereo not given),-16,-19
COc1ccc(NCCCn2c(C)c(C)n3c4c(=O)n(C)c(=O)n(C)c4nc23)c(OC)c1,4,-4
CCCCc1ccc(S(=O)(=O)N2CCN(c3nccc(-c4ccco4)n3)CC2)cc1,-8,-11
CCCc1c(C(=O)NCCCn2ccnc2)cnn1-c1ccccc1,-7,-9
Cc1c(C)n2c3c(=O)n(CCCc4ccccc4)c(=O)n(C)c3nc2n1CCCO,7,8
Oc1ccc(-c2csc(NC3CCCC3)n2)c(O)c1,3,2
CCOC(=O)C1(Cc2ccc(Cl)cc2)CCN(Cc2nccn2CC)CC1,-2,-4
CC(C)Cc1nc(C2CC(=O)N(Cc3ccccn3)C2)n(-c2ccccn2)n1 (stereo not given),12,-1
CCN(CC)C(=O)Oc1ccc2c(ccn2Cc2cccc(Cl)c2)c1-c1ccc(OC)cc1,4,2
NC(=O)C1CCN(C(=O)c2cccn3c(=O)c4c5c(sc4nc23)CCCC5)CC1,5,3
COc1ccc(-c2ccc(C(=O)N(C)Cc3nc(C)no3)o2)cc1,3,2
CCNC(=S)NNC(=S)NCC1CCCO1 (stereo not given),13,14
O=c1oc2c(Cl)cc(Cl)cc2cc1-c1csc(Nc2ccc(F)cc2)n1,-5,-9
O=C(Nc1nnc(C2CC2)s1)c1nn(-c2ccccc2)c(=O)c2ccccc12,0,-3
Cc1ccsc1C(=O)N(C)C(C)c1cccs1 (stereo not given),0,-3

# 4 of these compounds in another layout:
Molecule | NPYLR7 ag | NPYLR7 ag max-min
CCCCc1ccc(S(=O)(=O)N2CCN(c3nccc(-c4ccco4)n3)CC2)cc1 | -8 | -11
CCCc1c(C(=O)NCCCn2ccnc2)cnn1-c1ccccc1 | -7 | -9
O=c1oc2c(Cl)cc(Cl)cc2cc1-c1csc(Nc2ccc(F)cc2)n1 | -5 | -9
NC(=O)C1CCN(C(=O)c2cccn3c(=O)c4c5c(sc4nc23)CCCC5)CC1 | 5 | 3

# (list continues)
SMILES,NPYLR7 ag,NPYLR7 ag max-min
CCC(C)(C)c1ccc(S(=O)(=O)N2CCN(c3cc(S(=O)(=O)N(C)c4ccc(OC)cc4)ccc3OC)CC2)cc1,25,13
O=C(CCC1CCN(Cc2ccccc2O)CC1)NCc1cccc(C(F)(F)F)c1,1,-3
c1ccc(-c2nnc3sc(-c4cnccn4)nn23)cc1,5,-3
CC(=O)Nc1sc(C)c(C)c1C(=O)O,12,13
CCC(C)(C)c1ccc(S(=O)(=O)N2CCC(c3nc(-c4ccc(C(F)(F)F)cc4)no3)CC2)cc1,31,17
Cc1ccccc1CN1CCN(c2ccc(S(=O)(=O)C(F)F)cc2)CC1,13,11
COc1ccc(-c2nc(CN(Cc3c(C)nn(C)c3C)C3CC3)c(C)o2)c(F)c1,-7,-13
CNc1ccc2ncc(-c3ccccc3OC)n2n1,-1,-3
CN(C)c1ccc(NC(=O)c2ccc(-n3ccnc3)nn2)c(C(F)(F)F)c1,-1,14
O=C(Nc1cccc(-c2ccn[nH]2)c1)C1CC2CCC1C2 (stereo not given),2,3
CCCCCCCCCCCCCCCC(=O)OC/C=C(C)/C=C/C=C(C)/C=C/C1=C(C)CCCC1(C)C,-26,-31
CCCC(=O)N1CCC1(C)C(=O)Nc1ccc(-n2cccc2)cc1 (stereo not given),9,5
Cc1ccc(OCC(O)Cn2c(C)cc(=O)n3ncnc23)cc1 (stereo not given),-4,-3
CCOC(=O)CC(c1ccccc1)C1CCNCC1 (stereo not given),-2,-2
CCC(C)C(NC(N)=O)C(=O)NNC(=O)CC12CC3CC(CC(C3)C1)C2 (stereo not given),2,8
CCCCCc1ccc(C(=O)N2CCN(c3nc4ccccc4nc3C)CC2)cc1,-7,-3
C=CCC(O)(CC=C)c1ccc(CN(Cc2ccc(C)o2)C2CC2)o1,7,11
Cc1ccc(N2CCCn3c2nc2c3c(=O)n(CCN3CCOCC3)c(=O)n2C)c(C)c1,-3,-5
CCC1CCCCN1CCCNC(=O)c1c(O)nc2sccn2c1=O (stereo not given),-3,-5
CCc1ccccc1C1c2cccn2CCCN1Cc1ccccc1[N+](=O)[O-] (stereo not given),12,21
O=C(O)[C@H]1C[C@@H](C(=O)N2CCCC2)CN(C/C=C/c2ccccc2)C1,7,4
CC1NC(=S)N(C2CC2)C1=O (stereo not given),9,8
CCOc1ccc2cc(C(N)=O)c(=Nc3ccccc3OC)oc2c1,-1,-5
Cc1nnc(NC(=O)CSc2nnc(CNC(=O)c3ccc(S(=O)(=O)N4CCCC4)cc3)n2-c2ccccc2)s1,-7,-5
CC1CCCC(NC(=O)CN(C)CC2CCN(CCO)CC2)C1C (stereo not given),6,5
SMILES,NPYLR7 ag,NPYLR7 ag max-min
CC(=O)Nc1ccc(F)c(C(=O)N2CCC(CN3CCC(C)CC3)CC2)c1,-3,-4
Cc1cc(C)n2nc(C(=O)NC3CCCCC3C(F)(F)F)nc2n1 (stereo not given),7&9,3&12
CN1CCC2(CC1)CC(NC(=O)c1cccc3cn[nH]c13)c1ccccc1O2 (stereo not given),3,2
C=C(C)CSc1nnc2[nH]c(=O)cc(N)n12,5,6
Cc1nn(C)c(C)c1CCc1nc(CC(C)C)nn1-c1ccccn1,0,-10
CC(C)=CC(=O)NCC1CCCN(Cc2ccnc(C(C)C)n2)C1 (stereo not given),0,-1
O=C(CCC1CCN(Cc2ccc3c(c2)OCCO3)CC1)N1CCN(c2ccccc2)CC1,15,4
CCOc1cc(C=NNc2nc(C)nc3sc4c(c23)CCCC4)ccc1O,-5,-8
COC(=O)c1ccc(-c2noc(CN3CCCN(C(=O)c4ccco4)CC3)n2)cc1,2,0
COc1ccc(OC2CCN(C(C)=O)CC2)c(C(=O)NCCn2cccn2)c1,8,7
CCc1nc2ccc(C(=O)N3CCN(S(=O)(=O)CC)CC3)cn2c1N(CC)CC(=O)N(C)C,-4,21
O=C1C(=Cc2ccc(OC(F)F)cc2OC(F)F)Oc2cc(O)ccc21,41*,58*
O=C(CSc1ncnc2c1oc1ccccc12)Nc1ccc2c(c1)OCO2,6,3
Cc1ccc(C(=O)N(CC(=O)Nc2nc(CC(=O)NC(C)CCc3ccccc3)cs2)C2CC2)cc1 (stereo not given),-11,-4
CCN1CCN(C(=O)CCC2CCN(C(=O)CC3=CCCCC3)CC2)CC1,19,1
O=C(NC(c1ccc(F)cc1)c1cnccn1)C1CCN(CCCc2ccccc2)CC1 (stereo not given),-1,-6
c1ccc(NCC2COc3ccccc3O2)nc1 (stereo not given),6,3
CC(C)(C)c1cc(NC(=O)Cc2ccccc2)n(-c2ccccc2)n1,25,23

# Ordered by molecular weight (lowest first): 6 of the compounds above.
SMILES,NPYLR7 ag,NPYLR7 ag max-min
CC(C)(C)c1cc(NC(=O)Cc2ccccc2)n(-c2ccccc2)n1,25,23
Cc1nn(C)c(C)c1CCc1nc(CC(C)C)nn1-c1ccccn1,0,-10
Cc1cc(C)n2nc(C(=O)NC3CCCCC3C(F)(F)F)nc2n1 (stereo not given),7&9,3&12
CCN1CCN(C(=O)CCC2CCN(C(=O)CC3=CCCCC3)CC2)CC1,19,1
O=C(CSc1ncnc2c1oc1ccccc12)Nc1ccc2c(c1)OCO2,6,3
CCOc1cc(C=NNc2nc(C)nc3sc4c(c23)CCCC4)ccc1O,-5,-8
